# Compound activity (PubChem BioAssay)
# Rango-impB inh – Rango-importin beta binding inhibition. Rango CFP/YFP FRET sensor + importin beta, 45 min. Potency, µM (titrated, usually from 92.2 µM), for the others: top-dose inhibition of complex formation. 0.031% of 340,000 active. AID 540263; active = rising FRET ratio curve, often small or poorly fitted; inconclusive = mostly compound fluorescence or quenching in the first reads; inactive = flat curves in all reads;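 also: potency is read from the fitted curve at half-maximal effect; 0% = DMSO wells and 100% = buffer wells lacking importin beta; nearly all actives have a fitted effect of over 15% in size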
# Target sequence (Q14974 whole entry, looked up): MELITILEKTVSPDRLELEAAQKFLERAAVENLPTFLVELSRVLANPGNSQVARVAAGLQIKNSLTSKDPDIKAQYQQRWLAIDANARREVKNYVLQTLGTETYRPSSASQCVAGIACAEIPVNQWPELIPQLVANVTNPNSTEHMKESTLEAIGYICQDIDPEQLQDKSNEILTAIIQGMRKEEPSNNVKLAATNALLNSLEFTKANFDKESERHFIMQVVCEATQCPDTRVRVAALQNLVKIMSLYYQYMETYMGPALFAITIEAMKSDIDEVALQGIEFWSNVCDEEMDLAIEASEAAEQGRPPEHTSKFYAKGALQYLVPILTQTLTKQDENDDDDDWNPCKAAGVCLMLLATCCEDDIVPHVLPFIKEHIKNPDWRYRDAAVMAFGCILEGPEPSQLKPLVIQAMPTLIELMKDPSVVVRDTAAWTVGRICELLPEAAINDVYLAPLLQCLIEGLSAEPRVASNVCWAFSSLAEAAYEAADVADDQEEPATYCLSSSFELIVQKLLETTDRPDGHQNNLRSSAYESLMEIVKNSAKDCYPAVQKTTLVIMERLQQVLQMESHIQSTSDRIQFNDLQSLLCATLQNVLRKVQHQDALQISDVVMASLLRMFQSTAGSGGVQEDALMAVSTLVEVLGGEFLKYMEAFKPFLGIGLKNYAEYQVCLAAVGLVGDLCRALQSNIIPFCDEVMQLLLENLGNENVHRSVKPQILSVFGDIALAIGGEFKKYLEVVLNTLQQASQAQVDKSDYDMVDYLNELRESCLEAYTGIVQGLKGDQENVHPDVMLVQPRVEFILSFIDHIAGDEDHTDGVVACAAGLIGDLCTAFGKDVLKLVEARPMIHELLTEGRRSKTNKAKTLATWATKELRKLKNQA
#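 FRET biosensor Rango (snurportin 1 IBB between N-terminal EYFP and C-terminal Cerulean), 50 nM in PBS/1 mM DTT/0.02% Tween-20/0.1% BSA, preincubated 5 min RT with compound; 0.125 microM importin beta added, 45 min RT, CFP/YFP FRET ratio read.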
# Rango dissoc inh – inhibitors of RanGTP-induced Rango-importin beta complex dissociation. Potency, µM (highest dose often 46.1 µM), for the others: top-dose activity change, negative = inhibition. 0.071% of 340,000 active. Biochemical FRET Rango-importin beta, RanGTP-induced dissociation; active means falling FRET ratio curve, often poorly fitted, with flat reads before Ran was added; inconclusive means other falling curves, or compound fluorescence or quenching; inactive means flat or rising ratio curve;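 also: potency is read from the fitted curve at half-maximal effect; % of control where 0% means no effect; nearly all actives have a fitted effect of over 45% in size; -100% = wells without RanGTP and RCC1; the record marks most hits as doubtful in a second field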
#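 Rango FRET biosensor (snurportin-1 IBB flanked by N-terminal EYFP and C-terminal CFP10) at 0.1 uM, with 0.25 uM importin beta in PBS, 1mM DTT, 0.02% Tween-20, 0.1% BSA. 0.6 uM Ran, 2mM GTP and 0.2 uM RCC1 were then added for 45 min at room temperature. Inhibition read as loss of FRET rise.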
# miR-21 FLuc – raises the signal of a miR-21 reporter; HeLa miR-21 FLuc reporter, luciferase, 48 h; 340,000 tested, under 10 active; Potency, µM (series often up to 38.3 µM), for inactives: at the highest dose reporter change, positive = more light; AID 2288; active = well fitted rising curve with a large enough effect; inconclusive = small, poorly fitted or top-dose-only effect; inactive = no such curve, though single readings can be large or run the other way;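 also: % of control where 0% means no effect; miR-21 action dims this reporter so a rising signal means less miR-21 action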
#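 Using DMEM plus 10% FBS, HeLa miR-21-FLuc cells are incubated with test compounds (final up to about 40uM) for 48 hours; firefly luciferase signal is then imaged following reagent-mediated lysis.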
# GLA inh pH 4.5 – alpha-galactosidase A (human) inhibition, pH 4.5. P06280. purified enzyme, 4-MU-alpha-Gal fluorescence, pH 4.5. activity change, negative = inhibition, % at 105 µM. 230,000 tested, under 10 active. AID 1467; inconclusive = small, poorly fitted or top-dose-only inhibition, or a rising curve; inactive = flat fitted curve, though single readings scatter; no compound was filed as active;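 also: 0% = full activity with enzyme and -100% = basal without enzyme; dose as in the result columns while the protocol names 77 µM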
# * hit, by the source's call; ? = inconclusive; / = no result given; & = joins results of further samples.
structure	miR-21 FLuc	Rango dissoc inh	Rango-impB inh	GLA inh pH 4.5
Cc1ccc(-c2cn(-c3ccc(OC(F)F)cc3)c3[n+]2CCCCC3)cc1	?	26%	2.3%	-1
Cc1ccc(-c2nc3ncccn3c2Nc2ccc3c(c2)OCCO3)o1	-46%	-9%	?	-3
CC1CN(Cc2nc3c(c(=O)n(C)c(=O)n3C)n2CCN2CCOCC2)CC(C)O1 (stereo unspecified)	0%	3%	-1.5%	-13
CC1(C)CCSC(/C=C/c2ccccc2)=N1	?	8%	-1.2%	8
S=C(NCCc1c[nH]c2ccccc12)NC1CC1	-3%	4%	0.2%	3
O=C(O)Cc1ccc(NC(=O)c2cccc(NC(=O)c3ccco3)c2)cc1	-1%	9%	4.4%	5
CCCCOC(=O)c1ccc(NC(=O)COC(=O)c2ccc3ncsc3c2)cc1	/	-4%	2.4%	/
CS(=O)(=O)N(CC(=O)N1CCc2ccccc2C1)c1cccc([N+](=O)[O-])c1	-2%	0%	?	/
Cc1cccc(C)c1NC1=NC(=S)N(c2ccc(N(C)C)cc2)C1(C)C	-4%	1%	-3.1%	2
Cn1c(=O)oc2cc(S(=O)(=O)NCCC(=O)NCc3ccc(F)cc3)ccc21	0%&-1%	9%	-3.5%	/
COc1ccc(C2=NOC(Cn3nc(C(=O)O)cc3-c3ccccc3)C2)cc1 (stereo unspecified)	1%	-14%	-7.3%	/
O=C1c2cccnc2C(=O)N1C1CCCCC1	-1%	9%	-0.5%	10
COc1ccc([N+](=O)[O-])cc1N(CC(O)CN(CC(C)C)CC(C)C)S(=O)(=O)c1ccccc1 (stereo unspecified)	6%	12%	1.0%	-4
Cc1cc(C)nc(NC(=O)Cc2cccs2)n1	-3%	5%	0.5%	-6
C=CCNc1oc(-c2ccc(OC)cc2)nc1C#N	-59%	2%	4.0%	-5
COc1ccc(-c2cccc(-c3cc(=O)oc4ccc(C(C)(C)C)cc34)c2)cc1	/	8%	-1.8%	-4
COc1ccc(Cn2c(-c3ccco3)nc3oc4cc(OC)ccc4c(=O)c3c2=O)cc1	-17%	?	3.3%	3
OC(c1ccccn1)C1CCN(Cc2nc(C(c3ccccc3)c3ccccc3)no2)CC1 (stereo unspecified)	4%	-9%	0.0%	-9
Cc1ccc(NS(=O)(=O)c2ccc(OCC(=O)NCC3CCCO3)cc2)cc1 (stereo unspecified)	5%	-6%	-1.8%	-1
COc1cccc(-c2nc(CS(=O)(=O)CC(=O)NCCc3ccc(OC)cc3OC)c(C)o2)c1	-6%&15%	11%	-4.0%	/
Cc1ccnc(SCC(=O)Nc2cccc(S(=O)(=O)N3CCOCC3)c2)n1	/	24%	-3.7%	/
Cc1cnc(SCc2ccc(Cl)cc2Cl)[nH]c1=O	-11%	-20%	3.3%	1
COc1cc(C(=O)NNC(=O)CNC(=O)c2ccc(Br)o2)cc(OC)c1OC	-1%	0%	0.1%	/
CCOC(=O)Cc1csc(NC(=O)CSc2nnc(C(C)C)n2CC)n1	-2%	-3%	5.5%	1
O=C(Nc1ccccc1Cl)C1CC(=O)N(Cc2ccco2)C1 (stereo unspecified)	/	11%	2.6%	/
O=C(NCCNC(=O)c1ccccc1F)c1ccccn1	0%	8%	-2.1%	/
CCCn1c(SCC(=O)Nc2ccccc2Oc2ccccc2)n[nH]c1=O	8%	-5%	4.2%	-12
CC1CCCc2sc3ncn(N)c(=N)c3c21 (stereo unspecified)	7%	4%	-0.1%	/
CCN1CCN(C(=O)c2ccc3c(c2)N(Cc2ccc(C)cc2)CCS3)CC1	9%	-5%	-0.2%	/
CN(C)c1ccc(/C=C(\C#N)C(=O)Nc2nc3c(s2)CCN(Cc2ccccc2)C3)cc1	-3%	?	?	-1
CC(=O)OCC(OC(C)=O)C(OC(C)=O)C(OC(C)=O)C(=O)Nc1cccc(C)c1 (stereo unspecified)	4%	0%	-3.8%	-6
COC(=O)CCCC1=CC2=CC(=O)C(C)(OC(=O)c3cccs3)C(=O)C2=CN1C1CCCC1 (stereo unspecified)	1%	-21%	-0.6%	6&8
COc1cc2[nH]c(=O)n(CCC(=O)N3CCN(c4cc(Cl)ccc4C)CC3)c(=O)c2cc1OC	-12%	-4%	-0.5%	2
Cc1ccc(S(=O)(=O)Nc2c(C(=O)O)[nH]c3ccccc23)cc1C	-2%	-3%	-5.0%	/
Cc1cc(C)cc(NC(=O)CSc2nc3ccccc3nc2N2CCCC2)c1	-4%	-14%	?	/
CCN(CC)S(=O)(=O)c1ccc(NC(=S)Nc2ccc(F)cc2)cc1	-2%	-6%	4.2%	/
CC1CCCN(C(=O)COC(=O)CNS(=O)(=O)c2ccc3ccccc3c2)C1 (stereo unspecified)	/	0%	1.2%	/
O=C(Cn1cc(C(=O)C2CC2)c2ccccc21)NCc1ccccc1	-47%	3%	0.5%	-12
N#C/C(=C(/O)COC(=O)c1cccnc1Cl)c1nc2ccccc2[nH]1	-3%	38%	-1.9%	8
C=CCNc1nc(Cl)nc(NC2CCCCC2)n1	-26%	1%	-2.4%	/
Fc1ccc(-c2nc(-c3cccs3)[nH]c2-c2ccc(F)cc2)cc1	?	-4%	3.7%	-11
COc1nc(NC2CCCCC2)nc(NC(C)(C)C)n1	/	3%	4.7%	/
CC(=O)Nc1nonc1C(=O)N1CCC(C)CC1	-6%	4%	3.7%	-8
Cc1cc(Cl)ccc1OC(C)C(=O)Nc1cnn(CCCC(=O)O)c1 (stereo unspecified)	1%	?	1.6%	/
C=CCOC(=O)C1=C(C)NC(=S)NC1/C=C/c1ccccc1 (stereo unspecified)	19%	28%	3.4%	-9
O=C(CN(Cc1ccccc1Cl)C(=O)CN1C(=O)CSc2ccccc21)NC1CC1	4%	-3%	3.0%	/
CCOC(=O)[C@H](C)N1[C@H](C)[C@H](c2ccccc2)Oc2ccc(Cl)cc2S1(=O)=O	/	-4%	3.1%	/
CC1=CS/C(=C(/C#N)C(=O)N2CCOCC2)N1c1ccccc1	0%	-22%	-4.9%	5

# 3 of the entries above in order of the Rango dissoc inh value, high to low:
SMILES | miR-21 FLuc | Rango dissoc inh | Rango-impB inh | GLA inh pH 4.5
CC(=O)Nc1nonc1C(=O)N1CCC(C)CC1 | -6% | 4% | 3.7% | -8
CC1CCCN(C(=O)COC(=O)CNS(=O)(=O)c2ccc3ccccc3c2)C1 (stereo unspecified) | / | 0% | 1.2% | /
Fc1ccc(-c2nc(-c3cccs3)[nH]c2-c2ccc(F)cc2)cc1 | ? | -4% | 3.7% | -11

# (list continues)
structure	miR-21 FLuc	Rango dissoc inh	Rango-impB inh	GLA inh pH 4.5
CCOC(=O)Nc1ccc(C)cc1Br	-2%	7%	4.2%	-1
C=C(C)C1CC=C(C)/C(=N/NC(=O)COc2ccc(C)cc2)C1 (stereo unspecified)	-6%	12%	-3.2%	-5
Cc1ccc(NC(=O)COC(=O)C2=NNC(=O)CC2)c(Br)c1	/	-8%	-1.3%	/
CCOc1ccc(-c2cc(CCCC(=O)NCCC(C)C)no2)cc1	17%	9%	0.0%	-1
COc1ccc(C(CC(=O)c2ccccc2)CC(=O)c2ccccc2)cc1	-10%	-1%	-2.8%	-10
COc1ccccc1C(O)(C(=O)NN(C(=O)c1ccccc1)c1ccccc1C)c1cccs1 (stereo unspecified)	0%	-10%	-3.1%	1
CCc1ccc(CN2CCN(c3ncccn3)CC2)cc1	-14%	32%	2.1%	/
CCN(c1ccccc1)S(=O)(=O)c1ccc(C(=O)N(CCCN(C)C)c2nc3c(C)cccc3s2)cc1	10%	-12%	0.5%	/
COc1ccccc1C(=O)C1CCCN(C(=O)c2cccnc2SC)C1 (stereo unspecified)	0%	29%	2.6%	1
COc1cc2c(cc1OC)C(C(=O)NC(C)c1ccccc1)CC(=O)N2 (stereo unspecified)	-2%	-1%	0.1%	/
O=C(CCc1nc(-c2cccs2)no1)NCc1ccc(F)cc1Cl	-5%	-18%	-2.1%	0
CC(Sc1ncccn1)C(=O)Nc1ccc2c(c1)OCO2 (stereo unspecified)	/	-1%	-4.1%	/
CC(C)(C)C(C(=O)n1cccc1C#N)c1ccccc1 (stereo unspecified)	/	0%	-3.2%	/
CN(C)CC1C2CCC(C2)C1O (stereo unspecified)	/	11%	-0.5%	/
Cc1ccc(C)c(NS(=O)(=O)c2ccc(OCC(=O)N3CCCC3)cc2)c1	0%	-7%	2.0%	-3
CCN1CCN(CCOCCOc2ccccc2)CC1	1%	-13%	2.4%	/
Cc1ccc(C(C(=O)NC2CCCC2)N(C(=O)CCC(=O)Nc2cc(C)on2)c2ccccc2)cc1 (stereo unspecified)	-3%	1%	-1.2%	3
COC(=O)c1ccc(COc2ccc(C=O)cc2)o1	-11%	0%	-0.3%	/
O=C(NCCCn1cccn1)C1CCC(=O)N(CCc2ccccc2)C1 (stereo unspecified)	0%	?	6.6%	/
O=C(CCc1ccccc1)N/N=C/c1cccc([N+](=O)[O-])c1	-12%	?	1.1%	-1
CCOC(=O)N1CCN(Cc2c(F)cccc2Cl)CC1	-11%	9%	?	-5
O=C(NCC(=O)N1CCN(c2ccccc2)CC1)c1ccccc1	-28%	-6%	-0.9%	/
N#CC1(Nc2ccccc2)C(=O)Nc2ccccc21 (stereo unspecified)	-8%	-10%	4.8%	2
O=C(O)CCCCCNc1nc(-c2ccccc2)nc2ccccc12	-3%	21%	-0.7%	/
O=C(NCCCN1CCOCC1)c1cccc(NS(=O)(=O)c2ccc(Br)cc2)c1	/	-1%	-1.7%	/
CC1CCCC(NC(=O)COC(=O)/C=C/c2ccc(F)cc2)C1C (stereo unspecified)	/	-6%	0.5%	/
CCc1ccccc1NC(=O)Nc1ccc(F)cc1	1%	-4%	2.4%	0
COc1cc2c(cc1OC)C(C(=O)Nc1ccc(F)c(Cl)c1)CC(=O)N2 (stereo unspecified)	-7%	3%	-0.1%	/
COc1ccc(Cl)cc1NC(=O)CN(C)C(=O)C1COc2ccccc2O1 (stereo unspecified)	/	-2%	-1.1%	/
Cn1ncc(SCc2ccccc2)c(Cl)c1=O	20%	-16%	-2.6%	-24
O=C(NCc1cccc(F)c1)c1ccc(N2C(=O)Cn3c(cc4sccc43)C2=O)cc1	-4%	-7%	2.3%	3
CNC(=O)c1c(NC(=O)c2ccco2)sc(C)c1C	/	10%	?	/
CCOc1ccccc1NC(=O)CNC(=O)c1nn(-c2ccc(OC)c(OC)c2)c(=O)c2ccccc12	-2%	-7%	?	/
CCC(=O)Nc1ccc(NC(=O)C23CC4CC(CC(C4)C2)C3)cn1	-52%	-25%	1.2%	8
CC(/C=N/NC(=O)c1ccncc1)=C\c1ccco1	-6%	22%	3.2%	-1
CCn1cc(C(=O)NCCN(C)CCc2ccccc2)c(=O)c2cc(S(=O)(=O)N(C)C)ccc21	-1%	13%	7.5%	-10
CCN(CC)CC(=O)Nc1ccccc1SCC(=O)Nc1ccsc1C(=O)OC	0%	-10%	1.1%	0
O=C(Nc1ccc2c(c1)OCO2)C1CCCCC1	-48%	-8%	-0.4%	/
CC1(C)Cc2c(c(N3CCOCC3)nc3sc4c(=O)[nH]cnc4c23)CS1	-22%	-6%	2.0%	0
COc1ccc(NC(=O)Nc2nnc(N3CCCCC3C)s2)cc1OC (stereo unspecified)	-31%	-8%	0.4%	4
COc1ccccc1NS(=O)(=O)c1cccc(NS(=O)(=O)c2ccc(Cl)c(C(=O)O)c2)c1	/	1%	-0.4%	/
FC(F)(F)c1nc2ccccc2n2c(-c3ccc(Cl)cc3)nnc12	-4%	-8%	-0.1%	-2
Cc1ccc(NC(=O)c2nnn(-c3cccc(C(F)(F)F)c3)c2N)cc1	-11%	-2%	1.1%	4
O=C(COc1coc(CN2CCc3ccccc3C2)cc1=O)Nc1cccc(Cl)c1	/	-13%	?	/
O=S(=O)(c1ccccc1)c1nc(-c2ccccc2)oc1NCc1cccnc1	-4%	-3%	1.6%	-14

# These rows are one share of the data; rates above refer to the full screens.
